MenB inh – inhibitors of Mycobacterium tuberculosis MenB enzyme | 100,000 tested, 0.43% active | MenB enzyme assay, absorbance read-out; some hits fall short of the stated cut | inhibition, %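 (about 12 µg/mL by stock and volumes)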;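 active = mean of two replicates above 30%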;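 note: 0% = no compound and 100% = wells with inactive enzyme; the first replicate is given; strong numbers were not always called active; inactives centre near -10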
Target sequence (P9WNP5 whole entry, looked up): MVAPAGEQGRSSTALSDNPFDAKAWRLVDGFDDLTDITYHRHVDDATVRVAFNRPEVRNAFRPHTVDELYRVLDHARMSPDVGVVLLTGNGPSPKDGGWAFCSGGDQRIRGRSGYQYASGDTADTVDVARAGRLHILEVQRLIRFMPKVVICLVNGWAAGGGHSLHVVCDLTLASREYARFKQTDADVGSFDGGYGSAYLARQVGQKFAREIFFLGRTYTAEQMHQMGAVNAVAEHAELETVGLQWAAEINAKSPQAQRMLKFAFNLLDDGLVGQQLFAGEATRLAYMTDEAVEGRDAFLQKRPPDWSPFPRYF
Mtb MbtI inh – MbtI salicylate synthase inhibition; AID 493033; 100,000 tested, 0.89% active; purified MbtI enzyme, fluorescence intensity read-out; inhibition, %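 (about 17 µg/mL by stock and volumes)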; P9WFX0;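 active = above 50% in both replicates, above 80% if mildly self-fluorescent; inactive = the rest, strongly fluorescent compounds included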;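 note: 0% = mean of negative and 100% = mean of positive controls; one replicate is shown; some compounds called inactive have numbers as strong as hits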
PV pol inh – inhibitors of poliovirus RNA polymerase binding and polymerization | AID 588519 | 150,000 tested, 0.66% active | % elongation, % (compound at 16.7 µg/mL) | poliovirus polymerase elongation, fluorescence polarization; stronger effect = lower value | P03300; in the data active = % elongation below about 90%; note: some results filed as inactive read as strong as hits
Target sequence (P03300 1749-2209 limits assumed): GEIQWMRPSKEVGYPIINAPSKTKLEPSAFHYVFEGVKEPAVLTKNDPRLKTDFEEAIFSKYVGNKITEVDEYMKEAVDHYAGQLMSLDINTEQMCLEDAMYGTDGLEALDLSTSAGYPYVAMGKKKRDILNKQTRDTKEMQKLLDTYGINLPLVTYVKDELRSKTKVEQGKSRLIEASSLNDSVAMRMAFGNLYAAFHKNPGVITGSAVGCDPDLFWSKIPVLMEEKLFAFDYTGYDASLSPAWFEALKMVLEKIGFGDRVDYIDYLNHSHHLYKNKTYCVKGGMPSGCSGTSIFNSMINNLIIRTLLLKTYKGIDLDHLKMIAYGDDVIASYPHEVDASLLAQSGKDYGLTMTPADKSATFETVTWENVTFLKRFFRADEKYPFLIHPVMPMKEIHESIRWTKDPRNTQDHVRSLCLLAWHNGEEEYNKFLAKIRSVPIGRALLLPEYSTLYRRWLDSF
PV pol inh intensity – further read-out of PV pol inh, marked with its call; % elongation; measured here: total intensity read-out; formula for this scale not given here;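 total fluorescence in place of polarization; lower means less elongation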
Active calls of the source: *; i = inactive; . = no result given. Rows were taken by chance (roughly 1.7% active in at least one column).

canonical_smiles	MenB inh	Mtb MbtI inh	PV pol inh	PV pol inh intensity
O=C(c1ccc2c(c1)OCCO2)N1CCC(c2nc3ccccc3o2)CC1	-1	-6	106	110
Cc1cccc(Cl)c1NC(=O)N1CCCN(c2ccc(C(F)(F)F)cn2)CC1	-8	-6	103	97
CC(CNC(=O)c1cccc(Nc2nc3ccccc3n3cnnc23)c1)c1ccccc1 (configuration not stated)	-27	92	102	100
O=C(Cc1ccccc1)N1CCN(S(=O)(=O)c2ccc(Br)cc2)CC1	-2	-1	103	98
CC(OC(=O)C1CCN(S(=O)(=O)c2cccs2)CC1)C(N)=O (configuration not stated)	-12	-15	101	110
Cn1c(=S)n(CN2CCC(c3ccccc3)CC2)c2ccccc21	6	-1	102	105
CCC(CC)C(=O)Nc1cccc(C(=O)Nc2ccc3c(c2)OCCO3)c1	-10	0	101	103
COc1ccc(C(=O)CSc2nccc(=O)[nH]2)cc1	-50	-6	102	104
O=C(OCc1ccc(Cl)cc1Cl)C(O)c1ccccc1 (configuration not stated)	1	-22	102	103
CCOC(=O)CCc1c(CC(=O)OCC)c[nH]c1/C=N/O	-21	-9	50*	57*
N#Cc1c(NC(=O)c2cc(C3CC3)on2)sc2c1CCC2	-21	34	103	99
CCCCS(=O)(=O)c1nc2c(cc1C#N)CCCC2	-12	38	100	104
CN(C(=O)Cn1c(=O)cnc2ccccc21)C1CCS(=O)(=O)C1 (configuration not stated)	-11	37	103	109
COc1ccc(-c2cc(C(F)(F)F)nc(N3CCc4ccccc4C3)n2)cc1OC	-4	9	101	97
O=C(O)CCSc1nnnn1-c1ccccc1	-23	2	103	103
COC(=O)c1ccc(-c2nc(-c3ccccc3)no2)cc1	-15	-5	100	102
CSc1nnc(CCNS(=O)(=O)c2ccc(Br)cc2)n1C	-29	-2	102	102
CCOC(=O)Nc1cc(C)ccc1OC	6	-9	99	99
CS(=O)(=O)N(CC(=O)Nc1ccccc1)C1CCCCC1	-10	-5	102	103
CCOc1ccc(NC(=S)N2CCn3cccc3C2c2ccc(OC)cc2)cc1 (configuration not stated)	-45	2	104	108
Fc1ccc(-c2nnc(CN3CCCC3c3nc4ccccc4s3)o2)cc1 (configuration not stated)	-4	-8	106	114
N/C(=N\O)c1ccc(O)cc1	0	8	100	107
COc1ccc(N2C(=O)CC(=O)NC2=S)cc1	-136	46	103	102
O=C(Nc1cccc2c1C(=O)NC2=O)c1ccc(S(=O)(=O)N2CCOCC2)cc1	-37	-29	107	100
CN=C1S/C(=C\c2sccc2C)C(=O)N1C	-10	.	110	110
COc1ccc(CCNC(C)=O)cc1	-28	-15	99	101
O=C(O)C1Cc2ccccc2CN1C(=O)COc1ccc(Cl)cc1Cl (configuration not stated)	-19	-13	101	99
O=C(O)CSc1ccc2nnc(-c3ccc(F)cc3)n2n1	-24	25	101	94
CC(=O)NCCc1ccc(S(=O)(=O)N2CCCCC2)cc1	-16	0	103	109
O=C(OCc1cc(=O)n2c(n1)sc1ccccc12)C1=NN(c2ccccc2)C(=O)CC1	-6	2	99	106
O=c1[nH]c(=S)[nH]c2c1C(C1CCCCC1)Cc1ccccc1-2 (configuration not stated)	-14	.	105	106
CCn1c(C)nc2cc(C#N)ccc21	10	16	109	109
COc1ccc(S(=O)(=O)N(C)c2ccc(C(=O)N3CCCCC3)cc2)cc1	0	-11	99	102
CC(COc1ccc2c(c1)OCO2)NC(=O)c1cn(-c2ccc(F)cc2)nn1 (configuration not stated)	0	-19	104	103
CC(=O)N1c2ccc(S(=O)(=O)NC(CC(=O)O)c3ccccc3)cc2CC1C (configuration not stated)	8	-9	100	102
COC(=O)c1ccc(NS(C)(=O)=O)cc1	0	17	102	103
CC(OC(=O)c1ccc(-n2cnnn2)cc1)C(=O)NC1CCCc2ccccc21 (configuration not stated)	-11	-6	100	100
CCOn1c(=O)c(=O)n(OC)c2ccccc21	-29	-2	104	107
CCOc1ccc(S(=O)(=O)N(C)CC(=O)NCc2ccco2)cc1Cl	-50	-4	106	101
O=C(Oc1ccccc1N1CCCCC1)C1CCN(c2nccc(C(F)(F)F)n2)CC1	6	7	102	96
COc1ccc(-c2cc(C(F)(F)F)nc(S(=O)(=O)CCCC(=O)Nc3ccc4c(c3)OCO4)n2)cc1OC	7	-21	102	104
CC1=NN(C(=O)C2CCCCC2)C(O)(c2ccccc2)C1 (configuration not stated)	-10	-17	103	104
O=C(c1cc2ccccc2oc1=O)N(Cc1ccco1)C1CCS(=O)(=O)C1 (configuration not stated)	13	36	103	100
CCCS(=O)(=O)Nc1cc(S(=O)(=O)CC)ccc1O	-19	-7	110	103
O=C(NCc1nc(-c2ccccc2F)no1)c1ccc2c(c1)OCO2	-7	-12	103	102
O=C1Cc2ccccc2C(=O)N1CCc1ccccc1	-62	20	98	100
CCc1cccc(NC(=O)CCCn2c(=O)[nH]c3ccsc3c2=O)c1	-6	4	103	106
CCN1C(=O)C(O)(CC(=O)c2ccc(F)cc2)c2ccccc21 (configuration not stated)	3	3	101	103
COC(=O)c1c(C)ncc2c1COC(C)OC2 (configuration not stated)	-10	-124	104	108
Cc1ccccc1NC(=O)Nc1ccon1	-5	-16	102	104

The list goes on:
canonical_smiles	MenB inh	Mtb MbtI inh	PV pol inh	PV pol inh intensity
CCCCCn1cc2c(c1-c1ccccc1Cl)c(=O)n(C)c(=O)n2C	-5	-31	102	102
CC(C)c1ccc(C2C=C(c3ccccc3)Nc3ncnn32)cc1 (configuration not stated)	-36	-6	101	105
CCOC(=O)c1oc2ccccc2c1NC(=S)NC(=O)CN1C(=O)CCC1=O	-13	104	97	98
CC1(C(=O)NC2CCCCCCC2)Cc2ccccc2C(=O)N1CCCN1CCOCC1 (configuration not stated)	1	6	100	103
Cc1cccc(N=C2SCCN2C)c1C	-9	-1	102	113
CCOC(=O)CSC1C(=O)Nc2ccccc2N=C1c1ccccc1 (configuration not stated)	-13	.	105	105
O=C(Nc1nc2ccccc2s1)c1ccc(S(=O)(=O)N2CCOCC2)cc1	-17	94	99	100
CCCN(CCC)C(=O)Cn1ncn2c(cc3ccccc32)c1=O	5	41	103	101
Nc1cc(C(Cl)=C(Cl)Cl)c(S(N)(=O)=O)cc1S(N)(=O)=O	-3	-5	102	101
CCC(=O)Nc1c(C#N)c2nc3ccccc3nc2n1CCc1ccccc1	-13	-14	132	160

Reprinted from the entries so far, four compounds:
canonical_smiles	MenB inh	Mtb MbtI inh	PV pol inh	PV pol inh intensity
O=C(Nc1nc2ccccc2s1)c1ccc(S(=O)(=O)N2CCOCC2)cc1	-17	94	99	100
CCCN(CCC)C(=O)Cn1ncn2c(cc3ccccc32)c1=O	5	41	103	101
Nc1cc(C(Cl)=C(Cl)Cl)c(S(N)(=O)=O)cc1S(N)(=O)=O	-3	-5	102	101
CCC(=O)Nc1c(C#N)c2nc3ccccc3nc2n1CCc1ccccc1	-13	-14	132	160

Carrying on.
canonical_smiles	MenB inh	Mtb MbtI inh	PV pol inh	PV pol inh intensity
O=C(OC1CCOC1=O)c1ccc(Cl)cc1 (configuration not stated)	.	-4	100	95
O=C(COc1ccc2c(c1)CCC2)NN1CCOCC1	-2	-1	100	101
C=CCn1c(SCC(=O)c2ccc(C)cc2)nc2sc(CC)cc2c1=O	-20	-2	102	109
Cc1ccc(NC(=O)C23CCC(C2)C(C)(C)C3=O)c(C)c1 (configuration not stated)	12	4	100	105
CC(C)C(Nc1ccc(C(F)(F)F)cn1)C(=O)O (configuration not stated)	-20	6	99	103
CCOC(=O)C1CC(=O)OC12CCCCC2 (configuration not stated)	19	-11	101	102
CCOC(=O)c1c(C)n(C)c2ccc(O)cc12	-3	7	107	102
COc1ccc(C(=O)NCCSc2ccccn2)cc1	7	-1	105	103
CCOC(=O)c1oc2ccccc2c1CN1CC(C)OC(C)C1 (configuration not stated)	-17	-4	104	106
O=C(NC1CCCCC1)c1cc(-c2ccco2)on1	7	-1	102	103
O=S1(=O)c2ccccc2-c2cc(Br)ccc21	-7	-17	99	100
CCSc1cc(C)nc(NC(=O)CC)n1	-11	.	111	117
COc1ccc(F)cc1S(=O)(=O)Nc1cccc(-c2ccc(N3CCCCC3)nn2)c1	-1	1	100	103
O=C(NCc1csc(-c2cccs2)n1)c1ccsc1	11	-29	103	97
Cc1ccccc1N1C(=O)c2ccccc2C(CC(=O)N(C)C)(CC(=O)N(C)C)C1=O	-12	1	100	103
c1ccc(C2Sc3ccccc3N=C3c4ccccc4SCC32)cc1 (configuration not stated)	-9	-3	109	115
Cc1oc2cc(Br)c(OC(=O)c3ccco3)cc2c1C(=O)OC(C)C	2	-11	102	98
N#Cc1c(Cl)nc(Cl)c(Cl)c1Cl	0	72	76*	80*
COc1ccccc1NC(=O)NCCC(=O)N1CCCC1	0	-2	.	.
CC1CCCCC1NC(=O)c1cn(-c2ccccc2)nc1-c1cccs1 (configuration not stated)	-19	66	106	107
COc1ccccc1C(CCNS(=O)(=O)c1ccc(C)cc1)c1ccco1 (configuration not stated)	-10	-8	99	100
Nc1cc(Cl)ccc1C(=O)OCC(=O)NCC1CCCCC1	.	-21	100	95
CC(C)Cn1c(SCC(=O)c2ccc(S(=O)(=O)N3CCOCC3)cc2)nc2ccccc21	-26	-6	109	100
Cc1ccc(CNC(=O)C2CCN(C(=O)c3ccc(-n4ccc5ccccc54)s3)CC2)o1	-37	i	103	102
Cc1ccc(-c2cc(-c3c(C)nn(C)c(=O)c3N)[nH]n2)cc1	-9	0	108	108
CCOC(=O)C1CCN(C(=O)CSc2ccc(NC(C)=O)cc2)CC1	-23	8	104	96
CCC(=O)NC(Nc1sc2c(c1C#N)CCCC2)(C(F)(F)F)C(F)(F)F	-2	.	100	106
Cc1cc(C(=O)N2CCCCC2)c2cc(F)ccc2n1	-24	0	102	102
CC(=O)N1CCC(N(CCCN2CCC(C)CC2)C(=O)NC23CC4CC(CC(C4)C2)C3)CC1	10	-8	100	102
COC(=O)C1Cc2c([nH]c3ccccc23)C(C)N1 (configuration not stated)	-14	72	105	112

2 of the compounds above, field by field.
Cc1cc(C(=O)N2CCCCC2)c2cc(F)ccc2n1
- MenB inh: -24
- Mtb MbtI inh: 0
- PV pol inh: 102
- PV pol inh intensity: 102
CC(=O)N1CCC(N(CCCN2CCC(C)CC2)C(=O)NC23CC4CC(CC(C4)C2)C3)CC1
- MenB inh: 10
- Mtb MbtI inh: -8
- PV pol inh: 100
- PV pol inh intensity: 102

Continued:
canonical_smiles	MenB inh	Mtb MbtI inh	PV pol inh	PV pol inh intensity
Cc1nc(Cc2nc3ccccc3n2Cc2ccccc2F)no1	-23	-2	106	107
COc1cc2[nH]c(=O)c(C(=O)NCCN3CCCC3)c(O)c2cc1OC	6	88	97	83
CCn1c(=O)cc(SCC(=O)NC2CCCCC2)c2ccccc21	-12	-9	99	103
CCOc1ccccc1NC(=O)Cn1cc(S(=O)(=O)N2CCC(C)CC2)c2ccccc2c1=O	-8	8	101	104
C[N+](C)(Cc1ccccc1)Cc1ccccc1	-8	.	107	106
CCSc1nnc(SC/C(O)=C(\C(=O)OC)c2nc3ccccc3[nH]2)s1	-45	9	99	95
COc1cc2nc(SCc3ccc(C)cc3)n3nc(-c4ccccc4)nc3c2cc1OC	-6	-10	103	108
c1ccc(CN2CCCC(c3nc4ccccc4[nH]3)C2)cc1 (configuration not stated)	-14	-11	104	106
COc1ccc(C(=O)Nc2ccc3c(c2)C(=O)N(CCC(=O)O)C3=O)cc1	-6	1	101	104
CCCC(=O)N(c1ccc(OCC)cc1)S(=O)(=O)c1ccc2c(c1)n(C)c(=O)n2C	0	10	102	99

Three entries out of the list, arranged by number of heavy atoms, falling:
canonical_smiles	MenB inh	Mtb MbtI inh	PV pol inh	PV pol inh intensity
O=C(c1cc2ccccc2oc1=O)N(Cc1ccco1)C1CCS(=O)(=O)C1 (configuration not stated)	13	36	103	100
O=C(O)CSc1ccc2nnc(-c3ccc(F)cc3)n2n1	-24	25	101	94
O=C(NC1CCCCC1)c1cc(-c2ccco2)on1	7	-1	102	103
